Kir21 block: inhibitors of mouse Kir2.1 inward-rectifier potassium channel. Inward rectifier potassium channel 2 (Mus musculus), P35561. HEK293-Kir2.1, FluxOR thallium flux fluorescence; stronger effect = lower value. B-score at 10 µM. 0.85% of 310,000 active;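 active = fluorescence ratio B-score at or below minus 3 SD of library scores, with starting-brightness B-score within 2 SD, cut at about -4.2 in these data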;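 note: channel flux triggered by added potassium and thallium sulfate stimulus; B-score of peak minus minimum fluorescence over baseline after thallium stimulus; more negative B-score means stronger Kir2.1 block with less thallium influx; some compounds called inactive have numbers as strong as hits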
Target sequence (P35561 whole entry, looked up): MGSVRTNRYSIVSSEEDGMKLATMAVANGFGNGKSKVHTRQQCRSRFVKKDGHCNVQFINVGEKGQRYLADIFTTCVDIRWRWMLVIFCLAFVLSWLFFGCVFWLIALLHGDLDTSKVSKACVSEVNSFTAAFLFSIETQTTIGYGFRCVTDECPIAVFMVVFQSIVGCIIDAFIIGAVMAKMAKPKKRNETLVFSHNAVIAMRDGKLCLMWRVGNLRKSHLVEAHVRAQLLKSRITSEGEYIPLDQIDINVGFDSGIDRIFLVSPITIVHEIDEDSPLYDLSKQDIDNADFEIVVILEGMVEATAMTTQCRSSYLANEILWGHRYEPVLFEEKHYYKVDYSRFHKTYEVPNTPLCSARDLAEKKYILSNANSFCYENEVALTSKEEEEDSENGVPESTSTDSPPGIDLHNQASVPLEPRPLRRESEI
An asterisk follows results filed as active. These rows are one share of the data, and most or all hits are left out here.

SMILES	Kir21 block
COc1ccc(S(=O)(=O)N[C@@H](Cc2ccc(Cl)cc2)C(=O)N2CC[C@@]3(O)CCCC[C@H]3C2)cc1	-2.2
CCOC(=O)N1CCN(C(=S)NC(=O)c2ccc(Br)cc2)CC1	0.38
O=C(Nc1ccc(F)cc1)N1CCN(c2ccc3nnc(-c4ccc(F)cc4)n3n2)CC1	0.11
C=CCn1c(COc2ccc(F)cc2)nnc1SCC(=O)NC1CC1	-0.11
O=C(OC(C(=O)NCc1cccs1)c1ccc(F)cc1)c1ccco1 (centres undefined)	0.48
CNc1nc(C)c(C(=O)c2ccc(Cl)cc2)s1	-0.03
CCc1ccccc1NC(=S)NNC(=O)c1ccccc1Cl	0.4
COc1ccc2c(c1)O[C@H](c1ccc3c(c1)OCO3)[C@@H](O)C2=O	0.28
NS(=O)(=O)c1cnccc1Nc1ccc(Cl)cc1	0.14
Cc1ccc(-n2nc3c(c2NC(=O)c2c(-c4ccccc4Cl)noc2C)CSC3)cc1	-0.91
O=C(O)c1ccc2c(c1)C(=O)N(c1cc(C(=O)O)ccc1Br)C2=O	0.42
CCOC(=O)C1=C(C)Nc2ncnn2C1c1ccc(N(C)C)cc1 (centres undefined)	0.22
O=C(c1ccco1)N1CCN(Cc2ccc(Cl)cc2)CC1	-0.15
CCCn1c(=O)c(C(=O)NNS(=O)(=O)c2ccc(C)cc2)c(O)c2ccccc21	0.12
CCOC(=O)C1(Cc2cccc(OC)c2)CCCN(Cc2cnn(C)c2)C1 (centres undefined)	-1.2
COc1cccc(/C=N/n2c(N)nc3ccccc32)c1OC	-0.52
Cc1cc2[nH]c(=O)c(=O)[nH]c2cc1S(=O)(=O)NCc1ccccc1	1.6
Cc1cc([N+](=O)[O-])ccc1NC(=O)c1ccco1	-0.57
COC(=O)c1ccc(COC(=O)C23CC4CC(CC(O)(C4)C2)C3)o1	0.62
Cc1ccc(C(=O)N2CC=C(c3ccccc3)CC2)o1	1.3
COc1ccc2oc(=O)c(C(=O)NCc3cccnc3)cc2c1	-1.5
COc1cc2c(cc1OC)CN(C(=O)CSc1nc(C)cc(C)c1C#N)CC2	-0.69
CC1CN(C(=O)Cn2cnc3c2c(=O)n(C)c(=O)n3C)CC(C)O1 (centres undefined)	-0.01
CN(CC(=O)Nc1ccc(N2CCOCC2)cc1)CC(=O)Nc1ccc([N+](=O)[O-])cc1Br	-0.7
O=C(Nc1cccc(F)c1)c1ccc(S(=O)(=O)N2CCOCC2)cc1	-1.2

The results go on.
SMILES	Kir21 block
O=C(Cn1ncc2c3ccccc3n(Cc3ccc(Cl)cc3)c2c1=O)NCCCN1CCCC1=O	-0.45
O=C(NCCc1ccc(Cl)cc1)C1CCCN1C(=O)Nc1ccc(F)cc1 (centres undefined)	0.07
COC(=O)c1sc(NC(=O)Cc2cccs2)nc1C	-1.1
COC(=O)C1=C(C(=O)OC)[C@@H]2N(C)c3ccccc3[C@@]23C[C@@H](C(=O)OC)N(C(=O)C2CCC2)C3=N1	-1.1
O=C(CCN1C(=O)C2C3CC(C(Br)C3Br)C2C1=O)OCC(=O)c1ccccc1 (centres undefined)	0.18
CN(C)S(=O)(=O)c1ccc(NC(=O)N2CCOCC2)cc1	-0.12
FC(F)(F)c1ccc2c(c1)NCC1CCCN21 (centres undefined)	0.8
O=C(NC1(C(F)(F)F)N=C2SCCN2C1=O)c1ccco1 (centres undefined)	1.3
Cc1ccc(S(=O)(=O)N2CCN(C(=O)c3c(-c4ccccc4)noc3C)CC2)c(C)c1	0.01
c1ccc2c(Nc3nncs3)c3ccccc3nc2c1	-0.89
N/C(=N\c1nc2ccccc2o1)NC(=O)c1ccccc1	0.17
NCCCN1CCOCC1	-0.12
CCOP(=O)(c1ccccc1)c1nc(-c2ccc(F)cc2)oc1N1CCCCC1 (centres undefined)	0.12
COC(=O)CCc1ccc(OCC(O)CNC(C)C)cc1 (centres undefined)	0
COC(=O)c1cc(=O)nc2sc3ccccc3n12	2.3
CC(C)(C)c1ccc(CCC2OCC(C[N+]3(C)CCOCC3)O2)cc1 (centres undefined)	-0.65
O=C1C2C(c3ccccc3)C=CC(c3ccccc3)C2C(=O)N1c1ccncc1 (centres undefined)	0.2
COc1ccc(Cc2nnc(NC(=O)CS(=O)(=O)c3ccc(C)cc3)s2)cc1OC	0.15
COc1ccnc(N=CNOCc2ccc(Cl)cc2)c1C#N	-1.6
C=CCOc1cccc(CNn2nnnc2N)c1	-0.04
COc1cc(OC)c(C(=O)O/N=C(\N)c2ccc(C)cc2)cc1OC	1.1
Cc1cc(NC(=O)c2cc(-c3ccc4c(c3)OCO4)on2)n(-c2ccccc2)n1	0.07
O=C(Nc1ccc(N2CCN(C(=O)c3ccccc3)CC2)c(Cl)c1)c1ncn[nH]1	-1.5
COC(=O)C1(C)NC(c2ccco2)C2C(=O)N(c3ccc(C)cc3)C(=O)C21 (centres undefined)	-0.02
CC(=O)Oc1ccc(NC(=O)CCC2CCCCC2)c(C(=O)O)c1	1.9

The list continues.
SMILES	Kir21 block
COC(=O)c1ccc(CN2CCc3ccccc32)cc1	0.03
COc1ccc(-c2csc(NC(=O)CCCc3cccs3)n2)cc1	-0.69
CCN(CC)C(=O)Cn1nnc(-c2ccc(S(C)(=O)=O)cc2)n1	1.9
CC1=C(C(=O)N2CCOCC2)C(c2ccc(Br)cc2)NC(=S)N1c1ccccc1 (centres undefined)	0.04
O=C1/C(=C/c2cccnc2)SC(=S)N1NS(=O)(=O)c1ccccc1	-0.06
COCCNC(=S)N1CCc2cc(OC)c(OC)cc2C1COc1cc(C)cc(C)c1 (centres undefined)	0.04
CCOc1ccc(CCNC(=O)c2nnc(Cc3ccc(F)cc3)o2)cc1OCC	-0.48
COCCNC(=O)CN(C(=O)Cn1nnc2ccccc21)c1cccc(C)c1C	-0.57
COc1cc(C(=O)NCCc2ccc(F)cc2)c([N+](=O)[O-])cc1OC	0.02
O=C(Nc1ccc(-c2nc3ccccc3s2)cc1)c1cc(-n2cnnc2)ccc1Cl	-0.01
COc1ccccc1NC(=O)NNC(=O)c1ccc(-c2ccccc2)cc1	-0.88
COc1ccc(N(C(=O)c2snc(C(N)=O)c2N)C(C(=O)NC2CCCC2)c2cccs2)cc1OC (centres undefined)	0.27
CN(C)c1ccc(-c2nnc(SCC3CCCO3)n2C)cc1 (centres undefined)	1.5
CC1CCN(C(=O)c2cc3c(ccc4ccccc43)o2)CC1	0.02
COc1ccc(-n2nc3c(c2NC(=O)C2CC2)CS(=O)(=O)C3)cc1	-2
O=C(C1CCCCN1S(=O)(=O)c1ccc(F)cc1)N1CCN(c2ccccc2F)CC1 (centres undefined)	1.6
CCOC(=O)CCC(NC(=O)CCCCCCCC(=O)NC(CCC(=O)OCC)C(=O)OCC)C(=O)OCC (centres undefined)	-0.14
CC(=O)N1c2ccccc2NC2=C(C(=O)CCC2)C1c1ccco1 (centres undefined)	0.5
Cc1cc(-c2nnc(SCC(=O)Nc3ccc(S(N)(=O)=O)cc3)n2N)n[nH]1	0.48
COc1ccccc1C(c1nnnn1C(C)(C)C)N1CCN(Cc2ccccc2)CC1 (centres undefined)	0.08
COc1ccccc1-c1nnc(SCCN2CCOCC2)n1-c1ccc(C)cc1	0.02
COc1ccccc1C(=O)N=c1sc2c(C)ccc(OC)c2n1C	3.1
O=C(Cc1ccc(Cl)c(Cl)c1)Nc1ccc2[nH]c(=O)[nH]c2c1	0.11
COc1ccccc1-n1cnc2sc(-c3ccccc3)cc2c1=O	0.06
Cc1ccc(/C(O)=C2/C(=O)C(=O)N(c3ccccn3)C2c2ccc(F)cc2)cc1 (centres undefined)	-1.2

In the list so far, two have a CF3 group.
SMILES	Kir21 block
FC(F)(F)c1ccc2c(c1)NCC1CCCN21 (centres undefined)	0.8
O=C(NC1(C(F)(F)F)N=C2SCCN2C1=O)c1ccco1 (centres undefined)	1.3

Additional records.
SMILES	Kir21 block
COC(=O)c1cnn(C(=O)c2ccccc2Br)c1N	-0.58
Cc1cc(C)c(CN2CCC(n3nccc3NC(=O)c3ccccc3Cl)CC2)cc1C	-0.18
CCOC(=O)N1CCN(C(=O)C2CC(=O)N(c3ccc(OC)cc3)C2c2ccc(OC)cc2)CC1 (centres undefined)	-0.39
Cn1c(-c2ccc(C(C)(C)C)cc2)n[nH]c1=S	-0.01
Cc1ccc(C(C(=O)NC2CCCC2)N(C(=O)Cc2cccs2)c2ccc3c(c2)OCCO3)cc1 (centres undefined)	0.01
COc1cc(C(=S)N2CCOCC2)ccc1OC(=O)c1cc([N+](=O)[O-])c(C)c([N+](=O)[O-])c1	-0.43
C/C(=N\NC(=O)Cc1ccc(O)cc1)c1cccnc1	1.6
C/C(=N\N=C1\NC(=O)C(CC(=O)Nc2ccccc2F)S1)C1CCCCC1 (centres undefined)	-0.03
COc1ccc(N2CC(C(=O)Nc3ncccc3C)CC2=O)cc1 (centres undefined)	0.14
CCN(CC)CCCN1C(=O)C(=O)/C(=C(/O)c2ccc(C)cc2)C1c1ccccn1 (centres undefined)	-0.2
COC(=O)C1Cc2c([nH]c3ccccc23)CN1C(C)=O (centres undefined)	0.47
Cc1ccc(C)c(OCC(=O)Nc2ccc(S(=O)(=O)Nc3ncccn3)cc2)c1	1.7
CCCC1C(c2ccc(OC)cc2)C(C#N)(C#N)C2(C#N)CC1(N)NC2=O (centres undefined)	-0.7
COCCCN(CC(=O)Nc1ccc(N2CCOCC2)cc1)S(=O)(=O)c1ccccc1	1.8
CCC(C)c1c(O)nc(SCC(=O)c2ccccc2)[nH]c1=O (centres undefined)	1.6
Cc1ccccc1Cn1c(=O)[nH]c2ccccc21	0.28
O=C1NCC(COc2ccc([N+](=O)[O-])cc2)O1 (centres undefined)	0.54
FC(F)(F)c1nnc2c(Sc3ccccc3)nc3ccc(Cl)cc3n12	0.43
CC(C)Sc1nc(N2CCOCC2)c2c(c1C#N)CC(C)(C)N(C)C2	2.2
Cc1cc2nn(-c3ccccc3)nc2cc1NC(=O)c1cccs1	0.02
CCOc1ccccc1NC(=O)C(OC(=O)c1cnccn1)c1ccccc1 (centres undefined)	1.1
COc1ccc2sc(C)nc2c1NC(C)=O	0.99
Cc1ccccc1C(=O)N1CCC(C(=O)Oc2ccc(C#N)cc2)CC1	-0.73
CCOc1ccc(NC(=O)N(C2CCCCCC2)C2CCN(C(C)=O)CC2)cc1	0.68
CC1CCC2C(=O)N(c3ccc(NC4CCCCC4)c([N+](=O)[O-])c3)C(=O)C2C1 (centres undefined)	0.46

Ordered by count of non-hydrogen atoms (descending): three of the compounds above.
SMILES	Kir21 block
CCOc1ccccc1NC(=O)C(OC(=O)c1cnccn1)c1ccccc1 (centres undefined)	1.1
COc1ccc(N2CC(C(=O)Nc3ncccc3C)CC2=O)cc1 (centres undefined)	0.14
C/C(=N\NC(=O)Cc1ccc(O)cc1)c1cccnc1	1.6

(list continues)
SMILES	Kir21 block
CCCc1c(C(=O)OCC)[nH]c2c1C(=O)CCC2	-0.53
COc1ccc(CCNC(=O)c2cc(S(=O)(=O)N3CCC4(CC3)OCCO4)ccc2F)cc1OC	0.02
CCCCN1C(=S)NC[C@@H]1Cc1cccc2ccccc12	0.52
Cc1sccc1/C=N/NC(=O)c1ccco1	0.94
Cc1ccccc1N/C(=N/S(=O)(=O)c1cc(F)ccc1F)c1ccccc1	-1.3
O=C(CCCN1C(=O)/C(=C/c2cccs2)SC1=S)Nc1ccc(O)cc1	-0.27
Cc1ccc(CNC(=O)Cc2ccc(Br)cc2)cc1	1
COc1ccc(-c2nc(SCC(=O)Nc3cc(C)on3)n[nH]2)cc1	0.05
CC(=O)N1CCN(c2ccccc2NC(=O)c2cc(Br)ccc2Cl)CC1	0.11
N#Cc1ccc(C(=O)Nc2nc(-c3cccs3)c(C(=O)C(F)(F)F)s2)cc1	-0.58
Cn1c(=O)oc2cc(S(=O)(=O)NCCC(=O)NCc3ccccc3Cl)ccc21	-1.1
Cc1ccc(NC(=O)CSC2=NN3CCCC(=O)N=C3S2)c(C)c1	-0.14
CCOC(=O)c1ccc(N=CC2=C(O)CC(C)(C)CC2=O)cc1	1.5
CCCCCC(=O)Nc1cc(S(=O)(=O)N2CCOCC2)ccc1Oc1ccc(OCC)cc1	1.2
CN1CCN(c2ccc(C(CC(N)=O)NC(=O)c3ccccc3)cc2[N+](=O)[O-])CC1 (centres undefined)	2.1
Cc1nnc(NC(=O)c2ccncc2)s1	1
CC(C)c1ccc(-c2nnn(CCC#N)n2)cc1	-0.72
COc1ccc(N2CCN(CCNC(=O)Nc3cc(Cl)ccc3OC)CC2)cc1	-2.7
COc1cc(Br)cc(Br)c1OCC(=O)N/N=C/c1c(C)n(C)n(-c2ccccc2)c1=O	-1.2
COc1ccc(-c2nc3ccc(N4CCCC4)cc3c(=O)[nH]2)cc1OC	0.81
CCn1c(CNc2ccc(Cl)cc2)nnc1SCCN1CCCCC1	0.05
CCCCNC(C(=O)Nc1ccc([N+](=O)[O-])cc1Br)c1ccccc1 (centres undefined)	1.2
O=C(NCc1ccc(C(F)(F)F)cc1)C1CC(c2ccccc2[N+](=O)[O-])=NO1 (centres undefined)	-1.5
CCOC(=O)CCc1c(C)n(CC)c2ncnn2c1=O	-0.05
Cc1c(/C=C/C(=O)c2ccccc2)cnn1C	0.03
O=C(CSc1nc2ccccc2nc1SCC(=O)N1CCOCC1)N1CCOCC1	0.59
Cc1cc(NC(=O)C2CC2)ccc1NC(=O)c1cccs1	0.81
CC(=O)c1ccc(NC(=O)CS(=O)(=O)c2cn(CC(=O)N3CCOCC3)c3ccccc23)cc1	-2.5
COCC(=O)N/N=C\c1cccc(OC)c1OC/C=C/c1ccccc1	-0.02

Shown field by field: entries from further up
> O=C(CSc1nc2ccccc2nc1SCC(=O)N1CCOCC1)N1CCOCC1
  Kir21 block: 0.59

> Cc1cc(NC(=O)C2CC2)ccc1NC(=O)c1cccs1
  Kir21 block: 0.81

By substructure: the entries above containing a tert-butyl group.
SMILES	Kir21 block
CC(C)(C)c1ccc(CCC2OCC(C[N+]3(C)CCOCC3)O2)cc1 (centres undefined)	-0.65
COc1ccccc1C(c1nnnn1C(C)(C)C)N1CCN(Cc2ccccc2)CC1 (centres undefined)	0.08
Cn1c(-c2ccc(C(C)(C)C)cc2)n[nH]c1=S	-0.01

Source: PubChem BioAssay (Johns Hopkins Ion Channel Center)
